Screens (PubChem)
miR-21 reporter = miR-21 reporter, rising signal; AID 2288; 340,000 tested, under 10 active; HeLa miR-21 FLuc reporter, luciferase, 48 h; Potency, µM (titrated, usually from 38.3 µM), for the others: at the top dose reporter change, positive = more light; active = well fitted rising curve with a large enough effect; inconclusive = small, poorly fitted or top-dose-only effect; inactive = no such curve, though single readings can be large or run the other way;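 further: % of control where 0% means no effect; miR-21 action dims this reporter so a rising signal means less miR-21 action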
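HeLa miR-21-FLuc reporter line, endogenous miR-21; 2000 cells/well in DMEM/10% FBS; compound titration up to ~40uM final, 48 h, 37 degree Celsius; luciferase detection reagent, 15 min lysis, CCD luminescence.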
Numbers without * were called inactive; ? = inconclusive.

canonical_smiles | miR-21 reporter
CCc1ccc(NC(=O)c2ccc3oc(=O)n(Cc4ccccc4)c3c2)cc1 | ?
O=c1c2ccccc2nc(/C=C/c2ccccc2F)n1-c1cccc(O)c1 | -2.2%
N#Cc1cccc(NC(=O)c2sc3nc4c(cc3c2N)N2CCC4CC2)c1 | -30.5%
Cc1cccc(Cn2cccc(C(=O)Nc3nc4ccccc4s3)c2=O)c1 | -48.9%
CCOC(=O)N1CCN(c2ncc3c(n2)CC(c2ccccc2O)CC3=O)CC1 (stereo unspecified) | ?
Cc1ccc(NC(=O)c2cc(S(=O)(=O)N3CCOCC3)c(Cl)cc2Cl)cc1 | ?
CCCCc1nn2c(=O)cc(COC(=O)Cc3ccccc3)nc2s1 | -1.9%
Cc1oc(-c2ccc(Cl)cc2)nc1CN1CCC(C(=O)NCCCN2CCN(c3cccc(Cl)c3)CC2)CC1 | ?
O=C(Nc1ccon1)c1cccn(Cc2cccc(Cl)c2)c1=O | 9.6%
O=C(Nc1ccc(Br)cc1)c1cccc(S(=O)(=O)N2CCc3ccccc32)c1 | ?
Cc1cc(NC(=O)c2cccn(Cc3cccc(Cl)c3)c2=O)no1 | -0.4%
CCOc1ccc(NC(=O)c2cccn(Cc3cccc(Cl)c3)c2=O)cc1 | 7.0%
CCCC12CN3CC(C)(CN(C1)C3c1c(C)[nH]c(=O)[nH]c1=O)C2=O (stereo unspecified) | 10.7%
Cc1nnc(NC(=O)c2cccn(Cc3ccc(Cl)cc3)c2=O)s1 | -0.3%
COc1cccc(-n2c(/C=C/c3ccccc3O)nc3ccccc3c2=O)c1 | ?
CCc1ccccc1NC(=O)c1cccn(Cc2ccccc2F)c1=O | -1.0%
COc1ccc(C)cc1NC(=O)N(Cc1ccc2c(c1)OCO2)C1CCN(Cc2ccccc2)CC1 | 7.9%
Cc1ccc(NC(=O)Cn2cc(C(=O)c3ccccc3)c3ccccc32)cc1 | -1.6%
O=C1CC(c2ccccc2Br)c2c(c3ccccc3oc2=O)O1 (stereo unspecified) | 1.4%
Nc1c(C(=O)Nc2ccc(OC(F)(F)F)cc2)sc2nc3c(cc12)N1CCC3CC1 | ?
Cc1ccc(OCC(=O)Nc2ccc(Cl)cc2C(=O)c2ccccc2)c(Br)c1 | -0.3%
Cc1ccc(NC(=O)Nc2ccc3nc(N4CCN(C)CC4)cc(C)c3c2)cc1F | ?
O=C(COC(=O)c1cccc(NC(=O)c2ccc(Br)cc2)c1)c1ccc(Br)cc1 | -40.1%
COc1ccc(C(=O)Nc2nnc(S(=O)(=O)N(CC(C)C)c3ccc(C)cc3)s2)cc1OC | -57.6%
Cc1c(Cl)cccc1NC(=O)c1oc2ccc(S(=O)(=O)N3CCC4(CC3)OCCO4)cc2c1C | ?

By substructure, the compounds so far containing a Cl atom
canonical_smiles | miR-21 reporter
Cc1ccc(NC(=O)c2cc(S(=O)(=O)N3CCOCC3)c(Cl)cc2Cl)cc1 | ?
Cc1oc(-c2ccc(Cl)cc2)nc1CN1CCC(C(=O)NCCCN2CCN(c3cccc(Cl)c3)CC2)CC1 | ?
O=C(Nc1ccon1)c1cccn(Cc2cccc(Cl)c2)c1=O | 9.6%
Cc1cc(NC(=O)c2cccn(Cc3cccc(Cl)c3)c2=O)no1 | -0.4%
CCOc1ccc(NC(=O)c2cccn(Cc3cccc(Cl)c3)c2=O)cc1 | 7.0%
Cc1nnc(NC(=O)c2cccn(Cc3ccc(Cl)cc3)c2=O)s1 | -0.3%
Cc1ccc(OCC(=O)Nc2ccc(Cl)cc2C(=O)c2ccccc2)c(Br)c1 | -0.3%
Cc1c(Cl)cccc1NC(=O)c1oc2ccc(S(=O)(=O)N3CCC4(CC3)OCCO4)cc2c1C | ?

Nothing new here: 3 of the compounds above.
canonical_smiles | miR-21 reporter
CCc1ccc(NC(=O)c2ccc3oc(=O)n(Cc4ccccc4)c3c2)cc1 | ?
O=c1c2ccccc2nc(/C=C/c2ccccc2F)n1-c1cccc(O)c1 | -2.2%
N#Cc1cccc(NC(=O)c2sc3nc4c(cc3c2N)N2CCC4CC2)c1 | -30.5%

Continued:
smiles | miR-21 reporter
Cc1cccc(-n2c(/C=C/c3ccccc3O)nc3ccccc3c2=O)c1 | ?
Cc1ccc(NC(=O)CN2C(=O)CN=C(c3ccccc3)c3ccccc32)cc1Cl | 24.4%
Cc1cccc(N2C(=O)CSC23C(=O)N(CC(=O)Nc2cccc(Cl)c2)c2ccccc23)c1 (stereo unspecified) | ?
COc1ccc(OCC(=O)N2CCN(Cc3cc(=O)n4nc(-c5ccc(OC)cc5)sc4n3)CC2)cc1 | -4.3%
Cc1cccc(-n2c(/C=C/c3cccc4ccccc34)nc3ccccc3c2=O)c1 | 1.6%
CCN1C(=O)NC(=O)/C(=C\c2cn(CC(=O)O)c3ccccc23)C1=O | 1.8%
CN1CCN(c2oc(-c3ccc(COc4ccccc4)o3)nc2C#N)CC1 | -0.9%
CCCOc1ccc(C2SCC(=O)Nc3c2c(C)nn3-c2cccc(C)c2)cc1OC (stereo unspecified) | -6.0%
Cc1cccc(N2CCN(C(=O)CCCCn3c(=O)[nH]c4ccsc4c3=O)CC2)c1C | ?
CSc1cccc(NC(=O)C2CCN(C(=O)c3cnn(-c4ccccc4)c3-n3cccc3)CC2)c1 | ?
Cc1cc2ccccc2n1-c1ccc(C(=O)N2CCC(C(=O)NCc3ccc(Cl)cc3)CC2)s1 | ?
O=S1(=O)N(Cc2ccccc2Cl)CCCN1Cc1ccccc1Cl | -0.3%
COc1ccccc1NC(=O)N(Cc1ccc2c(c1)OCO2)C1CCN(Cc2ccccc2)CC1 | 7.8%
Cc1cccc(NC(=O)Cn2cc(C(=O)c3ccccc3)c3ccccc32)c1C | 14.0%
O=C(COc1ccccc1[N+](=O)[O-])N1CCN(CCc2ccncc2)CC1 | -4.3%
Cc1ccc(CNC(=O)c2ccc(Nc3nc4ccccc4n4nnnc34)cc2)cc1 | -47.0%
Cc1ccccc1-c1nc(CN2C(=O)CN=C(c3ccccc3)c3ccccc32)c(C)o1 | 12.7%
COc1ccc(C(=O)Nc2ccc(S(=O)(=O)N(Cc3ccccc3)c3ccccc3)cc2)cc1 | ?
CC(C)Cc1nc2cccnc2n1C1CCNCC1 | -6.8%
Cn1c(=O)n(C)c2cc(CNCCc3ccccc3F)ccc21 | -2.6%
CCc1ccccc1NC(=O)C(CC)Oc1ccccc1-c1nnc(-c2ccccc2)o1 (stereo unspecified) | ?
CCCCOc1ccc(CN2C(=O)C(=O)c3cc(C)ccc32)cc1OC | ?

Of the compounds above, two contain an NH in an aromatic ring.
smiles | miR-21 reporter
CCCC12CN3CC(C)(CN(C1)C3c1c(C)[nH]c(=O)[nH]c1=O)C2=O (stereo unspecified) | 10.7%
Cc1cccc(N2CCN(C(=O)CCCCn3c(=O)[nH]c4ccsc4c3=O)CC2)c1C | ?

Grouped by structure, the compounds so far with a thiophene ring, fused or not
smiles | miR-21 reporter
N#Cc1cccc(NC(=O)c2sc3nc4c(cc3c2N)N2CCC4CC2)c1 | -30.5%
Nc1c(C(=O)Nc2ccc(OC(F)(F)F)cc2)sc2nc3c(cc12)N1CCC3CC1 | ?
Cc1cccc(N2CCN(C(=O)CCCCn3c(=O)[nH]c4ccsc4c3=O)CC2)c1C | ?
Cc1cc2ccccc2n1-c1ccc(C(=O)N2CCC(C(=O)NCc3ccc(Cl)cc3)CC2)s1 | ?

Only part of the results is shown, so the mix of outcomes need not match the whole.
